NPR1 antag = blocks ANP-stimulated signaling of human Npr1 receptor. P16066. HEK293 hNpr1 GloSensor cGMP, ANP-stimulated luminescence. Potency, µM (highest dose often 46.3 µM), for inactives: top-dose activity change, negative = inhibition, actives largely listed as inhibitors. actives 1.6% (n = 76,000). AID 1347048; active = well fitted inhibition curve with a large enough effect; inconclusive = small, poorly fitted or top-dose-only effect; inactive = no such curve, though single readings can be large or run the other way;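 further: nearly all actives have a fitted effect of over 60% in size; nearly all hits also lower the signal before the agonist is added; a reference antagonist and vehicle were the controls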
Target sequence (P16066 whole entry, looked up): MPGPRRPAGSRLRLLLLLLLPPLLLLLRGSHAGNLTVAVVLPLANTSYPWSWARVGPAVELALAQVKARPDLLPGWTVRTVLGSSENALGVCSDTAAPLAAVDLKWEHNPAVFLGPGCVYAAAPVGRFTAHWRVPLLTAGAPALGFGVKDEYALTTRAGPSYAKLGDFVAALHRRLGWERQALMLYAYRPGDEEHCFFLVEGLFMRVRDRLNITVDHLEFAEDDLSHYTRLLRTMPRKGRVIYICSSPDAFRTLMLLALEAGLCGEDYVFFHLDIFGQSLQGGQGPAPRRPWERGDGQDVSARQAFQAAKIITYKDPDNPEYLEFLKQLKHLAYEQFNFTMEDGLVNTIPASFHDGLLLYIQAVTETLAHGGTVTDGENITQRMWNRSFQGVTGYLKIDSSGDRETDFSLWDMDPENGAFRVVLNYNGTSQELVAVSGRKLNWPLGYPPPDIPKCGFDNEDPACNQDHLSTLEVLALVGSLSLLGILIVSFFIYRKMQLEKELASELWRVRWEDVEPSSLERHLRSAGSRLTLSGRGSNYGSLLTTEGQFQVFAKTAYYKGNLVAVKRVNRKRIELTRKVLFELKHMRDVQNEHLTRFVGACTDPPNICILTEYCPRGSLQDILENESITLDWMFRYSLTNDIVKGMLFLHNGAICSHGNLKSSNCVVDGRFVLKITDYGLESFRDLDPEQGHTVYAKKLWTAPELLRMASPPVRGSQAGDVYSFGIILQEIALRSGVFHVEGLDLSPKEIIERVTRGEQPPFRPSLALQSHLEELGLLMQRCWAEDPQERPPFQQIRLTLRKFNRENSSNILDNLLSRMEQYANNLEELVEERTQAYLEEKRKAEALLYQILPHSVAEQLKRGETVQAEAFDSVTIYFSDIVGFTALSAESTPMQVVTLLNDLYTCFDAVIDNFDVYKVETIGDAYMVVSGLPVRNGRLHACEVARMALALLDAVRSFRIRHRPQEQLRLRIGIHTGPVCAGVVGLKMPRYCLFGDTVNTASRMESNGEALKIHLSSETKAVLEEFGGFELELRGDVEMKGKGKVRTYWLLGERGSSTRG
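Compound pre-incubated 30 min at room temperature on GloSensor-loaded HEK293 cells stably carrying hNpr1 and the pGS-40F cGMP biosensor. Stimulation uses hNppA at 0.1 nM final; luminescence is taken at baseline and 20 min post-agonist.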
* marks the source's active call; other numbers are inactive results; u = inconclusive; [ ] = dose if it differs, or a comment. On the % scale 0 is the no-effect control and ±100 the full control effect; potency means the concentration at half of the fitted maximal effect.

SMILES	NPR1 antag
O=C(CCC[C@@H]1[C@H]2CCCN3CCC[C@@H](CN1Cc1cccnc1)[C@@H]23)Nc1ccncc1	2%
COC1CCN(C(=O)C(C)(C)Oc2nn(CCOc3ccccc3)c3ccccc23)CC1	u
Cc1cnc(CCNS(=O)(=O)c2ccccc2)n1CC1CC1	0%
CC(C)c1noc(-c2cn(C3CCCN(C(=O)c4ccc(C(C)(C)C)cc4)C3)nn2)n1 (stereo unspecified)	u
O=C(c1cncc(Br)c1)N1CCCCCC1c1nnc(-c2ccccc2)o1 (stereo unspecified)	-1%
CCc1ccc(NC(=O)Cn2c(N(C)Cc3ccccc3)nc(C)cc2=O)cc1	u
O=C(Nc1ccc(Cl)cc1Cl)c1cccn2nccc12	0%[70.6 µM]
CN(C)C(=O)c1nc(-c2cccc(C(F)(F)F)c2)c2ccccn12	-1%[70.6 µM]
O=C(c1nnc(COc2ccc3c(c2)OCO3)n1-c1ccccc1)N1CCC[C@@H]1c1nc2ccccc2[nH]1	1%
O=C(NC1CCOC2(CCOCC2)C1)c1cn(CCN2CCNCC2)nn1 (stereo unspecified)	-1%
Cc1ccc(C(=O)NC2CCCN(c3cc(-c4ccc(F)cc4)[nH]n3)C2)cc1 (stereo unspecified)	0%
CNC(=O)[C@@H]1C[C@@H](O)CN1C1CCN(C(=O)CC2CCCCC2)CC1	-3%
CN1Cc2ccc(Nc3ccccc3)nc2C(C)(C(=O)NCc2ccc3c(c2)OCO3)C1 (stereo unspecified)	-15%[70.6 µM]
Cc1nc2c(c(NCCc3cnn(-c4ccccc4)c3)n1)CCNCC2	5%
CC(C)c1cc(C(=O)NCC2CCN(c3cnn(C)c(=O)c3)C2)n(C)n1 (stereo unspecified)	4%
CCn1c(CO)nnc1C1CC(NC(=O)Cc2c(C)n[nH]c2C)C1 (stereo unspecified)	-2%
COc1ccc(C(=O)NC2CCN(C(=O)c3cc4c(=O)[nH]c(C)cn4n3)CC2)cc1	-3%
CCc1noc(CN(CC)C(=O)Cn2nc(C)n(Cc3ccccc3)c2=O)n1	3%
CCN1c2cc(C(=O)NCCc3ccccc3)ccc2C(=O)N2CCCCC21 (stereo unspecified)	-17%
COC1CCCN(C(=O)c2cc(COc3c(F)cccc3F)on2)C1 (stereo unspecified)	12%
CN1CC(=O)N(c2ccccc2)Cc2c(NCCc3ccc(Cl)cc3)ncnc21	-12%
O=C(NCCc1ccccc1)NC1CCc2nnc(C3CC3)n2CC1 (stereo unspecified)	-2%
COCC1CCN(C(=O)c2ccc3oc(-c4ccc(C(F)(F)F)cc4)nc3c2)C1 (stereo unspecified)	3%
C[C@@H]1CN(C(=O)c2ccc(Cn3cccn3)o2)CC[C@]1(C)O	-1%
O=C(CCC[C@@H]1[C@H]2CCCN3CCC[C@@H](CN1C(=O)c1cccnc1)[C@@H]23)NCCCN1CCCC1=O	-1%
Cc1ccc(NC(=O)CN2C(=O)NC3(CCCCC3)C2=O)cc1C	3%
CC(C)Oc1ccc2c(NC(=O)[C@H]3CCCO3)nn(CC(F)(F)F)c2c1	6%
Cc1cc(C(=O)N2CCCCCCNC(=O)[C@@H]3C[C@@H](c4nc(Cc5ccccc5)no4)C[C@@H]32)nn1C	1%
CC(C)CNC(=O)C1N(C(C)C)C(=O)C12CCCC2 (stereo unspecified)	4%
CCN(CC)C(=O)[C@@H]1CCC[C@@H](NCc2cccc3c2OCO3)CN(C)C(=O)C1	-21%[70.6 µM]
CC(C)C(=O)N[C@H]1[C@H](O)[C@H](O)C[C@@H]1c1ccc(N2CCOCC2)nc1	6%[70.6 µM]
CCOC(=O)c1ccc(NC(=O)CCn2ccn3nc4c(c3c2=O)CCCC4)cc1	-20%
COc1ccc(Cl)cc1C(=O)NC1CCCN(c2cc(-c3ccc(F)cc3)[nH]n2)C1 (stereo unspecified)	-22%
CN1C(=O)[C@H]2CN(Cc3ccc(F)c(Br)c3)C[C@H]2C1=O	-1%
O=C(Cn1cncn1)N1CCc2onc(C(c3ccccc3)c3ccccc3)c2C1	-2%
Cc1noc2c(N3CCOCC3)cc(-c3cccs3)nc12	3%[70.6 µM]
CCOc1ccc(-c2cc3c(=O)n(CCNC(=O)c4cccc(C#N)c4)ccn3n2)cc1	-1%
Cn1ccnc1CN1C(=O)CO[C@H]2CN(Cc3c[nH]c4ccccc34)C[C@H]21	1%[70.6 µM]
Cc1cc2nc3n(c(=O)c2n1CC(=O)Nc1ccc(Br)cc1F)CCCCC3	0%
CCn1cc(C(=O)N[C@@H]2CN(S(C)(=O)=O)C[C@H]2CN(C)C)cn1	0%
CC1(COc2cccnc2)COc2ccc(C(=O)NCc3ccc(F)cc3)cc2N1 (stereo unspecified)	35µM*
COC(=O)C(=O)N1CC[C@H]2NC(=O)N(c3ccc(C(C)C)cc3)C(=O)[C@H]21	-4%[70.6 µM]
Cc1ccc(C(=O)N2CCCC(c3nn(-c4ccc(Cl)cc4)c(=O)[nH]3)C2)cc1 (stereo unspecified)	4%
O=C1CCCN1CC(=O)N1CCCC(Nc2ccccc2)C1 (stereo unspecified)	1%
Cc1ccc(-c2ccc3nnc(CNC(=O)c4cccc(N(C)C)c4)n3n2)cc1C	4%
O=C(c1cc[nH]c1)N1CCN(CCOCc2ccccc2)CC(O)C1 (stereo unspecified)	-17%
FC(F)(F)c1ccc(CN2CC[C@H](c3nc4ccc(C(F)(F)F)cc4[nH]3)C2)cc1	u
Cc1nn2cc(CCNCC3(O)CNCCOC3)nc2s1 (stereo unspecified)	10%
COc1ccc(CC(=O)NC2CCCc3c2[nH]c2c(Cl)cccc32)cc1OC (stereo unspecified)	u
COc1ccccc1CC(=O)NC1CCN(c2cc(C)cc(C)c2)C1=O (stereo unspecified)	3%
O=C1N(C2CCN(Cc3ccccn3)CC2)C(c2ccncc2)C12CCCCC2 (stereo unspecified)	8%
CCOc1ccc(C(=O)NCCn2ccn3nc(-c4ccc(OC)cc4)cc3c2=O)cc1	-2%
CC(=O)Oc1c(-c2ccc(NC(=O)c3ccco3)cc2)c(C2CC2)nn1-c1cccc(C)c1	-4%
Cc1nccn1CCC1CCN(c2nccc(-c3ccccn3)n2)CC1	1%
CN(C1CCc2nn(CC3CC3)c(=O)n2CC1)S(=O)(=O)c1cccs1 (stereo unspecified)	1%
Cc1ccc(NC(=O)Cn2cccc2-c2nc(-c3ccccc3)no2)cc1	-3%
Cc1noc(-c2ccn3c(CNC(=O)c4cc(F)ccc4F)nnc3c2)n1	7%
CC(C)CN(CC1CN(C(=O)Cc2cccs2)CCO1)C(=O)c1cccc2ccccc12 (stereo unspecified)	-10%
O=C(NCc1nnnn1-c1ccccc1)C1NCCc2[nH]cnc21 (stereo unspecified)	3%
COCC(=O)N1C[C@@H]2C(=O)N(Cc3ccc4c(c3)OCO4)C(=O)[C@@H]2C1	0%
New compounds follow:
SMILES	NPR1 antag
CNC(=O)c1cccc(-c2cnc(Nc3ccncc3)c3c2CCO3)c1	3%[70.6 µM]
Cn1c(CO[C@H]2CN(C(=O)c3cccnc3)C[C@H]2F)nc2ccccc21	3%[70.6 µM]
COCCCNC(=O)c1ccc2c(c1)C(O)CCCCCN2CCOC (stereo unspecified)	1%
CN(C)C[C@@H]1CN(c2ccncn2)C[C@H]1NC(=O)c1c(F)cccc1F	4%
CN1CCCC2(CCN(C(=O)c3sccc3S(N)(=O)=O)C2)C1=O (stereo unspecified)	4%
COc1ccc(NC(=O)Nc2cccc(-c3ccc(N4CCCCC4)nn3)c2)c(OC)c1	7.9µM*
O=C([C@@H]1CCCN1Cc1cc(=O)c2cc(F)ccc2[nH]1)N1CCCCC1	0%
COc1ccc(C(=O)N2CCC3(CC2)CC(=O)c2ccc(Cl)cc2O3)cc1	-10%
Cc1c(CN2CCCC(CNC(=O)c3cccc4ccccc34)C2)[nH]c2ccccc12 (stereo unspecified)	-3%
O=C(NCC1(COc2ccc(C(F)(F)F)cn2)C[C@@H](O)[C@@H](O)C1)c1cccnc1 (stereo partly specified)	-2%
CN(C)C[C@@H]1CN(c2ccncn2)C[C@H]1NC(=O)COc1ccc(Cl)cc1	4%
CN(C)c1cc(=O)c2ccnc(N3CCN(c4ccccn4)CC3)c2o1	2%[70.6 µM]
COc1ccc(OCC2(C)COc3ccc(C(=O)N(C)C)cc3N2)cc1 (stereo unspecified)	u
CN1CCC(CN2CCC(c3nn(C)c(=O)n3-c3ccccc3)CC2)CC1	5%
Cc1nc(CN(C)C(=O)c2coc(COc3ccc(F)cc3Cl)n2)cs1	13%
CC(Cc1cccnc1)Nc1cc(-c2ccccc2F)nc2ccnn12 (stereo unspecified)	4%
Cc1cc(S(=O)(=O)N2CCCC(Cn3c(C4CC4)nc4cccnc43)C2)ccc1F (stereo unspecified)	-6%
N[C@H]1CN(C(=O)c2cccc(-n3cnnc3)c2)C[C@@H]1c1ccccc1	2%
Cc1ccc(C(=O)N2CC(c3nnc(C(C)C)o3)C3(CCOCC3)C2)cn1 (stereo unspecified)	0%
CCCc1noc(-c2cn(C3CCN(C(=O)c4ccc(OC)c(F)c4)CC3)nn2)n1	-19%
O=C(CCc1c[nH]c2ccccc12)N1CCC(Oc2ncccc2C(=O)N2CCOCC2)C1 (stereo unspecified)	-7%
O=C(c1ccc(F)cc1)N1CCC2(CC1)CC(Cc1ccccc1)=NO2	-17%[70.6 µM]
C[C@@H](NC(=O)NC1(c2ccccc2)CCOCC1)c1onc(-c2cccnc2)c1C(=O)O	2%
O=C(NCc1ccc2c(c1)OCO2)C1CC(c2ccccc2)CN(C(=O)NCc2ccccc2)C1 (stereo unspecified)	-23%

Part of the list above, in markdown:
| molecule | NPR1 antag |
| --- | --- |
| O=C(c1ccc(F)cc1)N1CCC2(CC1)CC(Cc1ccccc1)=NO2 | -17%[70.6 µM] |
| C[C@@H](NC(=O)NC1(c2ccccc2)CCOCC1)c1onc(-c2cccnc2)c1C(=O)O | 2% |

New compounds follow:
SMILES	NPR1 antag
CC1=C[C@@H](CN2CCOCC2)[C@H](C(C)C)C[C@H]1Cc1nnc(-c2ccccc2)o1	-8%[70.6 µM]
CCc1cc(=O)n(CC(=O)Nc2ccc(C)c(Cl)c2)c(N2CCOCC2)n1	-16%
Cc1cc(CN(C)C(=O)c2cn(Cc3ccccc3Cl)nn2)on1	0%
CCOc1ccccc1NC(=O)N1CCC(N2CC3CC(C2)[C@H]2CCCC(=O)N2C3)CC1 (stereo partly specified)	2%
Cc1cc(F)ccc1NC(=O)CCn1ccn2nc3c(c2c1=O)CCCC3	3%
COc1ccc(C2(C(=O)N3CCC(c4n[nH]c(=O)n4-c4ccccc4)CC3)CC2)cc1	2%
O=C(c1cnc2ccccc2c1)N1CC[C@H](N2CCOCC2)[C@H](CCCO)C1	3%
COCCN1C(=O)c2cccn2CC1CNC(=O)Cc1cccc(OC)c1 (stereo unspecified)	0%
COc1ccc(C(=O)N2CCCN(c3cc(-c4ccccc4)[nH]n3)CC2)cc1F	-14%
CC(C)(C)CN1CCOC[C@H]1c1nc(C(C)(C)C)co1	-5%[70.6 µM]
CCc1noc(-c2ccn3c(CNC(=O)CCc4cccc(OC)c4)nnc3c2)n1	15%
O=C(c1ccsc1)N1CCCC(c2noc(COc3ccccc3F)n2)C1 (stereo unspecified)	16%
CCCN(CCC)Cc1ccc(C(=O)NCc2c(C)noc2C)cc1	-8%
COc1cccc(CN2CCC[C@H]2C(=O)N2CCCCCCNC(=O)CC2)c1OC	0%
COc1ccc(C(=O)Nc2ccc(-c3noc([C@@H]4CCCN4C)n3)cn2)cc1	u
Cc1ccccc1Cn1cc(-c2ccncc2)cc1C(=O)N1CCN(c2ccccc2)CC1	0%
CCN1C(=O)N(CC(N)=O)C(=O)C12CCN(Cc1cccc(Oc3ccccc3)c1)CC2	0%
Cc1ccccc1C(=O)N1C(C(=O)NCC(C)C)COC12CCN(C(=O)c1cccc(Cl)c1)CC2 (stereo unspecified)	-1%
CCCN1CCc2[nH]cnc2C12CCN(C(=O)C1COc3ccccc3O1)CC2 (stereo unspecified)	2%
COCCN1C(=O)c2ccccc2C(C(=O)Nc2cc(Cl)ccc2OC)C12CCCC2 (stereo unspecified)	u
O=C(c1ccccc1)N1CCC2(CC1)C(=O)NN=C2c1cccnc1	0%

Among those listed so far, twelve have a Cl atom.
SMILES	NPR1 antag
O=C(Nc1ccc(Cl)cc1Cl)c1cccn2nccc12	0%[70.6 µM]
CN1CC(=O)N(c2ccccc2)Cc2c(NCCc3ccc(Cl)cc3)ncnc21	-12%
COc1ccc(Cl)cc1C(=O)NC1CCCN(c2cc(-c3ccc(F)cc3)[nH]n2)C1 (stereo unspecified)	-22%
Cc1ccc(C(=O)N2CCCC(c3nn(-c4ccc(Cl)cc4)c(=O)[nH]3)C2)cc1 (stereo unspecified)	4%
COc1ccc(CC(=O)NC2CCCc3c2[nH]c2c(Cl)cccc32)cc1OC (stereo unspecified)	u
COc1ccc(C(=O)N2CCC3(CC2)CC(=O)c2ccc(Cl)cc2O3)cc1	-10%
CN(C)C[C@@H]1CN(c2ccncn2)C[C@H]1NC(=O)COc1ccc(Cl)cc1	4%
Cc1nc(CN(C)C(=O)c2coc(COc3ccc(F)cc3Cl)n2)cs1	13%
CCc1cc(=O)n(CC(=O)Nc2ccc(C)c(Cl)c2)c(N2CCOCC2)n1	-16%
Cc1cc(CN(C)C(=O)c2cn(Cc3ccccc3Cl)nn2)on1	0%
Cc1ccccc1C(=O)N1C(C(=O)NCC(C)C)COC12CCN(C(=O)c1cccc(Cl)c1)CC2 (stereo unspecified)	-1%
COCCN1C(=O)c2ccccc2C(C(=O)Nc2cc(Cl)ccc2OC)C12CCCC2 (stereo unspecified)	u

Screens from PubChem BioAssay.

An excerpt. The share of hits here may be higher or lower than overall.
